Source: PubChem
StopGo FLuc = lowers the firefly signal of an FMDV 2A StopGo reporter; 120,000 tested, 0.23% active; Potency, µM (titrated, usually from 57.5 µM), for the others: at the top dose signal change, negative = less light; HEK cells with a luciferase reporter of 2A StopGo recoding; active = well fitted falling curve with a large enough effect; inconclusive = small, poorly fitted or top-dose-only effect; inactive = no such curve, though single readings can be large or run the other way; also: nearly all actives have a fitted effect of over 60% in size; overnight with compound
StopGo RLuc = lowers the Renilla signal of an FMDV 2A StopGo reporter; 120,000 tested, 0.32% active; Potency, µM (titrated, usually from 57.5 µM), inactives show top-dose signal change, negative = less light; HEK cells with a luciferase reporter of 2A StopGo recoding; active means well fitted falling curve with a large enough effect; inconclusive means small, poorly fitted or top-dose-only effect; inactive means no such curve, though single readings can be large or run the other way; also: nearly all actives have a fitted effect of over 55% in size; overnight with compound
Starred values were filed as active, the others as inactive; u = inconclusive; & = joins results of further samples; [ ] = remark or other dose. % is scaled to controls: 0 for no effect and ±100 for the full control effect; potency is read from the fitted curve at half-maximal effect. These rows are one share of the data (hit frequency here may not be typical).

SMILES	StopGo FLuc	StopGo RLuc
CN(C)c1ccc(CNC(=O)C2CCN(S(=O)(=O)c3ccc4c(c3)oc(=O)n4C)CC2)cc1	-20%	-10%
O=C(O)CCc1ccc(-c2cccs2)n1CC(=O)Nc1ccccc1C(F)(F)F	-3%	2%
CC(=O)NCCNC(=O)CN1CCCC(c2nc3ccccc3o2)C1 (stereo not given)	15%	-1%
Cc1cccc(NC(=O)COc2ccc(/C=C(\C#N)C(=O)N3CCOCC3)cc2)c1	43%[activator]	4%
COc1ccc(/C=C2/C(=O)c3ccccc3OC2c2ccccc2)cc1 (stereo not given)	92%[activator]	0%
COc1ccc(-c2c3c(=O)n(CCCN4CCOCC4)ccc3nc3nc(C)nn23)cc1	-9%	-16%
CCOc1ccc(-c2cc3nc(C4CCN(C(=O)OC(C)(C)C)CC4)c(C(=O)Nc4cc(OC)ccc4OC)cn3n2)cc1	-7%	-21%
Cc1ccc(C23CC4CC(CC(C(=O)NC(C)(C)CO)(C4)C2)C3)cc1	u	u
CC(NC(=O)c1nccnc1N)c1ccc(Cl)cc1 (stereo not given)	-23%	u
Cc1ccc(C(=O)N2CCc3cc(CNC(=O)c4ccccc4F)ccc32)cc1	-36%	-22%

Some of the entries above in a different format:
compound,StopGo FLuc,StopGo RLuc
COc1ccc(-c2c3c(=O)n(CCCN4CCOCC4)ccc3nc3nc(C)nn23)cc1,-9%,-16%
CCOc1ccc(-c2cc3nc(C4CCN(C(=O)OC(C)(C)C)CC4)c(C(=O)Nc4cc(OC)ccc4OC)cn3n2)cc1,-7%,-21%
Cc1ccc(C23CC4CC(CC(C(=O)NC(C)(C)CO)(C4)C2)C3)cc1,u,u
CC(NC(=O)c1nccnc1N)c1ccc(Cl)cc1 (stereo not given),-23%,u

Other structures follow.
SMILES	StopGo FLuc	StopGo RLuc
CCOc1ccc(-c2nc(CSCC(=O)NCC(OCC)OCC)c(C)o2)cc1	u	11%
O=C(NCc1ccco1)C1CCN(C(=O)N2CCOc3ccc(Cl)cc32)CC1	-2%	-2%
O=C(NCCS(=O)(=O)N1CCN(c2ccccc2F)CC1)c1ccccc1C(F)(F)F	-1%&-23%	6%&3%
COc1ccc(CC(=O)NCC(c2ccc(Cl)cc2)N2CCOCC2)cc1 (stereo not given)	-13%	-2%
CCN(CC)C(=O)c1nn(Cc2ccccc2)c(=O)c2ccccc12	0%	0%
O=C1CC(c2nnc(Cc3ccc(F)cc3Cl)o2)CN1c1ccccc1 (stereo not given)	-15%	-19%
Cc1ccn2c(c1)nc(=O)c1cc(S(=O)(=O)N3CCC(C)CC3)c(Cl)cc12	-2%	0%
COc1ccc(CNC(=O)c2c(Nc3ccc(OC)cc3OC)sc(C(=O)c3ccc(Cl)cc3)c2N)cc1	-6%	5%
Cc1ccc(S(=O)(=O)C=C(c2ccccc2)c2ccccc2)cc1	-2%	93%[activator]
NC(=O)c1ccccc1NC(=O)c1ccc(-c2ccccc2)cc1	180%[activator]	-7%
COc1ccc(S(=O)(=O)c2c(O)c(C)cc(NC(=O)c3ccccc3)c2C(C)C)cc1	-17%	1%
Cc1ccc(S(=O)(=O)N(CC(=O)N2CCN(C)CC2)c2cccc(Br)c2)cc1	-2%	90%[activator]
Cc1ccc(CCNC(=O)c2ccc(NC(=O)N3CC(C)Sc4ccccc43)cc2)cc1 (stereo not given)	-15%	-6%
O=C(CCCCCCC(=O)N/N=C/c1ccc(Cl)cc1)N/N=C/c1ccc(Cl)cc1	4%	6%
Cn1nc(CC(=O)NCc2ccc(F)cc2)c2ccccc2c1=O	-29%	u
CCc1cnc2c(c1SC(C)CC)c(=O)n(C)c(=O)n2C (stereo not given)	u	u
CCNC(=O)c1cc2n(n1)CCCN(Cc1ccc(C)cc1)C2=O	7%	13%
Cc1cccc(NC(=O)C(c2ccccc2)N2Cc3ccccc3C2=O)c1C (stereo not given)	-19%	107%[activator]
Fc1ccc(Sc2cc(Sc3ccc(F)cc3)ncn2)cc1	143%[activator]	3%
CCN(CC(=O)Nc1c(C#N)c(C)c(C)n1Cc1ccco1)CC(=O)NC(C)(C)C	-5%	-3%

Compounds listed so far that have an aryl thioether with sulfur outside any ring (two):
SMILES	StopGo FLuc	StopGo RLuc
CCc1cnc2c(c1SC(C)CC)c(=O)n(C)c(=O)n2C (stereo not given)	u	u
Fc1ccc(Sc2cc(Sc3ccc(F)cc3)ncn2)cc1	143%[activator]	3%

More records.
SMILES	StopGo FLuc	StopGo RLuc
O=C(c1cc2ccccc2oc1=O)N1CCN(Cc2cccc(Cl)c2)CC1	4%	0%
N#Cc1nc(-c2cccc(Cl)c2)oc1NCCCN1CCOCC1	26%	23%
O=C(CCn1c(=O)c2sccc2n(CC(=O)Nc2ccccc2)c1=O)Nc1ccc(F)cc1	-1%	-5%
NC(=O)c1cccc(C(=O)Nc2cccc3cccnc23)c1	189%[activator]	6%
Cc1ccc(-c2nc(C#N)c(NCCCn3ccnc3)o2)cc1	94%[activator]	6%
Cc1nc(-c2ccc(Cl)cc2)sc1CCNC(=O)Cc1ccc(F)cc1	u	30%[activator]
O=C(CCn1ccc2ccccc21)NC12CC3CC(CC(C3)C1)C2	74%[activator]	21%
N#CC(C(=O)C1c2ccccc2Oc2ccccc21)c1nc2ccccc2[nH]1 (stereo not given)	u	176%[activator]
O=C(Nc1c(NC2CCCCC2)c2ccccc2oc1=O)c1cccs1	22%	16%
COCCCNC(=O)c1sc2ncccc2c1-n1cccc1	-7%	7%
Cc1cc(Cl)c2ccc(C)c(C)c2n1	12%	3%
CCOCCCNC(=O)NC(C)c1c(-n2cccc2)sc2c1CCN(CC)C2 (stereo not given)	5%	-1%
CC(C)CCC(CCNC1CCC(C)CC1)C1CCOC(C)(C)C1 (stereo not given)	-17%	68%[activator]
COc1cccc(CN2CCN(Cc3cc(OC)c(O)c(OC)c3)CC2)c1	-1%	-8%
c1cncc(CNCc2ccco2)c1	8%	-6%
CCOc1ccc(N(C)S(=O)(=O)c2cc(-c3cc(C)no3)ccc2C)cc1	u	u
COc1ccc(CNC(=O)c2ccc(CN3C(=O)C(C)=C(c4ccc(C)cc4)S3(=O)=O)cc2)cc1	-17%	-6%
O=c1c2nncn2ccn1-c1ccc(F)c(F)c1	3%	8%
COc1ccc(C2CC(=O)Nc3sc(C(=O)Nc4cccc(C(F)(F)F)c4)c(C)c32)cc1O (stereo not given)	-14%	-27%
COc1ccc(C)c2sc(N(Cc3cccnc3)C(C)=O)nc12	5%	-5%
CCOC(=O)C(NC(=O)c1ccc(C(F)(F)F)nc1)C(=O)OCC	-8%	-6%[1.06 µM]
O=C(CC1CCCC1)NCCCCNC(=O)CC1CCCC1	-7%	1%
CC1CC(OC(=O)C(O)c2ccccc2)CC(C)(C)N1C (stereo not given)	-13%	-10%
Cc1cc(Cl)ccc1NC(=O)c1ccccc1-c1ccccc1	22%	-8%[1.06 µM]
CCCCCCCc1ccc(C(=O)NNC(=O)c2ccc(Br)cc2)cc1	9%	7%
Cc1ccc2c(=O)cc(C(=O)Nc3ccccc3C(F)(F)F)oc2c1	8%	-5%
COc1ccccc1NC(=O)C(=O)c1cn(CC(=O)N2CCOCC2)c2ccccc12	180%[activator]	11%
Cc1cccc(CSc2nnc(CCCCCN)o2)c1	u	-11%
O=C(Nc1ccccc1Cl)c1cc(-c2cccs2)on1	213%[activator]	7%
COc1cc(C(=O)N(Cc2cccnc2)Cc2cc3cc(C)ccc3[nH]c2=O)cc(OC)c1OC	16%	-5%
Cn1c(SCc2ccc(F)cc2)nc2ccc(C(=O)NCc3ccccc3)cc21	-3%	148%[activator]
Cc1[nH]c2ccccc2c1C(c1ccc(Cl)cc1)c1c(C)[nH]c2ccccc12	42%[activator]	-18%
COC(=O)c1ccc(NC(=O)c2c(NCc3ccc(OC)c(OC)c3)sc3c2CCCC3)cc1	4%	u
COc1cccc(/C=C/c2nc(C#N)c(N(C)C)o2)c1	188%[activator]	10%
Cc1ccc(NC(=O)CSc2nc3ccccc3nc2N2CCOCC2)cc1	-8%	-11%
COc1cc(NC(=O)CN2C(=O)C(c3ccc(Cl)cc3)=NC23CCCCC3)cc(OC)c1	0%	-9%
O=C(Nc1c(Cl)cccc1Cl)c1cccc2c1C(=O)N(C1CCCCC1)C2	u	-11%
CC(=O)c1ccc(NC(=O)CSc2nnc(C(C)N3C(=O)COc4ccccc43)n2C)cc1 (stereo not given)	-11%	-5%
Cc1cccc(-c2noc(-c3ccc(NCc4ccco4)c([N+](=O)[O-])c3)n2)c1	55%[activator]	-2%
O=C(Nc1ccc(F)cc1)[C@H](Cc1ccccc1)N1Cc2ccccc2C1=O	-14%	47%[activator]
COc1cc(OC)c2c(O)c3c(=O)cc(C)oc3c(-c3c(OC)cc4cc5c(c(O)c4c3O)C(=O)CC(C)(O)O5)c2c1 (stereo not given)	8%	0%
N#Cc1ccc(C(=O)/C=C/c2cccs2)cc1	22%	27%
CC(C)c1ccc(CNc2ccc(N3CCOCC3)c(C(=O)O)c2)cc1	20%	3%
CCOc1ccc(C(=O)Nc2cc(-c3ccccc3)no2)cc1	0%	-3%
Cc1cccc(/C=C/c2onc(C)c2S(=O)(=O)N2CCC(C(=O)N3CCCCC3)CC2)c1	-1%	7%
COc1cc(/C=C(/C#N)C(=O)c2ccccc2)cc(Cl)c1OC(C)C	-12%	3%
Cc1cccc(N(C)C(=O)CCS(=O)(=O)c2ccc3c(c2)n(C)c(=O)c(=O)n3C)c1	0%	-4%
CCN(C(=O)COC(=O)c1ccc2ccccc2n1)c1ccccc1	-5%	-13%
CCOC(=O)C1CCN(C(c2ccc(OCC)cc2)c2c(O)cc(C)n(CCOC)c2=O)CC1 (stereo not given)	0%	-2%
Cc1ccc(N)cc1[N+](=O)[O-]	8%	5%

Continuation.
SMILES	StopGo FLuc	StopGo RLuc
Cc1ccc(C(=O)COC(=O)c2cccc(NC(=O)c3ccc(Cl)cc3Cl)c2)cc1	-43%	u
C=CCNc1nc(C(=O)OCC(=O)NCc2cccc(Cl)c2)cs1	-6%	-18%
O=C(NCc1cccn1Cc1ccccc1)NC12CC3CC(CC(C3)C1)C2	-12%	4%
O=C(O)c1cc2sc3ccccc3c2s1	37%[activator]	-6%[1.06 µM]
O=C1C(=O)N(C2CCN(C(=O)c3ccc(F)cc3)CC2)CCN1Cc1ccc(F)cc1	25%	1%
O=C(/C=C/c1ccc2oc3ccccc3c2c1)c1ccccc1	133%[activator]	6%
Cc1cc(NCc2ccccn2)n2nc(C)c(-c3ccccc3Cl)c2n1	u	u
Cc1ccc(-c2nc(CC(=O)NC3CCCC(C(F)(F)F)C3)cs2)cc1 (stereo not given)	u	u
O=C(NCCOCCn1c(=O)oc2ccccc21)Nc1cccc(Cl)c1	-20%	-3%
O=C(O)c1ccc(CSc2cc(Cl)ccc2Cl)cc1	0%	0%
O=C(O)CCCNS(=O)(=O)c1ccc(Cl)c(C(F)(F)F)c1	3%	-14%[1.06 µM]
NC(=O)c1cc(Cl)ccc1OCC(=O)N1CCC1	-6%	-7%
COc1cccc(Nc2nc(N)c(C(=O)c3cc(C)c(C)cc3C)s2)c1	139%[activator]	120%[activator]
CCCCCC1CCC(c2ccc(C#Cc3ccc(OC(F)F)cc3)cc2)CC1 (stereo not given)	-1%	-2%
CN(Cc1ccccc1)c1nc(-c2cccnc2)nc2ccccc12	u	u
CN(C)C(=S)Cc1ccccc1	2%	-9%
COc1ccc(CC(=O)NCc2nc3cccnc3n2Cc2ccc(F)cc2)cc1OC	-15%	-16%
COCCOc1ccc(C(=O)/C=C/c2ccc(O)cc2)cc1OC	24%	22%
Cc1nn(CC(=O)O)c2nc(-c3cnn(C)c3C)cc(C(F)F)c12	2%	-8%
CSc1ccc(CCNC(=O)CS(=O)(=O)Cc2nc(-c3ccc(C)cc3)oc2C)cc1	12%	12%

Full records as entered above. Order of screens: StopGo FLuc | StopGo RLuc
COCCOc1ccc(C(=O)/C=C/c2ccc(O)cc2)cc1OC across the screens: 24% | 22%
NC(=O)c1cc(Cl)ccc1OCC(=O)N1CCC1 across the screens: -6% | -7%
O=C(O)CCCNS(=O)(=O)c1ccc(Cl)c(C(F)(F)F)c1 across the screens: 3% | -14%[1.06 µM]
CSc1ccc(CCNC(=O)CS(=O)(=O)Cc2nc(-c3ccc(C)cc3)oc2C)cc1 across the screens: 12% | 12%
CN(Cc1ccccc1)c1nc(-c2cccnc2)nc2ccccc12 across the screens: u | u

The list goes on:
SMILES	StopGo FLuc	StopGo RLuc
COc1ccc(C2C(=O)c3ccccc3C2=O)cc1	-4%	-4%
Cc1ccc(C)c(N2CCN(c3nccn4nc(-c5ccc(Br)cc5)cc34)CC2)c1	-1%	-8%
CC(C)Cn1cc(NC(=O)NCc2ccc(Cl)cc2)c2ccccc2c1=O	-12%	-8%
Cc1ccc(C)c(NC(=O)c2ccc3c(O)c(S(=O)(=O)c4ccc(Cl)cc4)c(=O)[nH]c3c2)c1	-2%	-1%
COc1ccccc1NC(=O)c1c(NCc2ccc(OC)c(OC)c2OC)sc2c1CCCC2	-19%	-18%
Cc1ccc(-c2csc3ncnc(Sc4nnc(C5CC5)o4)c23)cc1	u	u
Cc1cc(C)cc(NC(=O)c2ccc3c(O)c(S(=O)(=O)c4ccccc4)c(=O)[nH]c3c2)c1	-5%	48%[activator]
CCOc1ccccc1NC(=O)NCc1nc(-c2ccccc2)oc1C	11%	8%
Cc1oc(-c2ccccc2)nc1CNC(=O)c1ccccc1	-30%	u
COc1cc(OC)c(NC(=O)C(C)n2nc(-c3ccccc3)c3c(c2=O)CCCC3)cc1Cl (stereo not given)	-7%	6%
Nc1cc(=O)nc(SCC(=O)Nc2ccc(F)cc2)n1CCc1ccccc1	-10%	-7%
COc1cccc2c(C)nc(Nc3nc(C)c(Cc4ccc(Cl)cc4)c(=O)[nH]3)nc12	-1%	-7%
Cc1ccc2nc(-c3ccc(C)s3)cc(C(=O)NCc3ccco3)c2c1	0%	0%
Cc1cc(=O)oc2cc(OC(=O)C(C)Oc3ccccc3Cl)ccc12 (stereo not given)	19%	-6%
